Bioassay records: PubChem, ICCB-Longwood Screening Facility, Harvard Medical School
MgrA DNA FP: modulators of Staphylococcus aureus MgrA DNA binding; fluorescence polarization; inhibition, %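 (about 10 µg/mL by stock and volumes)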; 0.13% of 84,000 active;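 active = above 50% in either of two replicates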;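 note: 0% = protein plus DNA without compound and 100% = DNA alone without protein; higher means less MgrA bound to DNA so lower polarization; one replicate is shown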
S aureus helic: S. aureus DNA helicase inhibition; purified S. aureus helicase, fluorescence unwinding assay; about half of the hits fall short of the stated cut; inhibition, %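 (tested at about 80 µM)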; 0.05% of 120,000 active;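 active = both duplicates at 50% or more, or one of them with a favoured structure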;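 note: 0% = mean of negative control wells and 100% = mean of positive control wells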
Numbers without * were called inactive; . = not tested or not shown; & = joins results of further samples.

Values in the order – MgrA DNA FP	S aureus helic
Cc1cccc(N2C(C)C(=O)SC23CCCCC3)c1 (stereo not drawn)
 : -2.4	17
Cc1cc(S(=O)(=O)NC2C3(C)CCC(C3)C2(C)C)c(C)cc1Cl (stereo not drawn)
 : 0.9	.
CC1CCCC(C)N1NC(=O)C1CC(=O)N(c2ccc3c(c2)OCCO3)C1 (stereo not drawn)
 : .	3
CCn1cc(S(=O)(=O)c2ccc(C)cc2)c(=O)c2cc(F)c(N3CCOCC3)cc21
 : 0.9	-8
CCNCc1ccc(-c2ccccc2)o1
 : -3.0	5
O=S(=O)(C1=CC23CCCC2(C=C(S(=O)(=O)c2ccc(Cl)cc2)C3)C1)c1ccc(Cl)cc1 (stereo not drawn)
 : 3.4	.
Cc1ccc(Cn2c(C(=O)Nc3ccc(F)cc3C)cc3oc(C)cc32)cc1
 : .	5
Oc1ccc(/C=N/N=C/c2ccc(O)cc2)cc1
 : .	-38
Cc1ccc(NCC2COc3ccccc3O2)cc1 (stereo not drawn)
 : -8.3	-1
CCOc1ccc(C2=C(CN3CCOCC3)C(c3ccccc3)c3ccccc3O2)cc1 (stereo not drawn)
 : 0.2	14
CCSc1nc(C2CC2)cc(-c2ccco2)c1C#N
 : .	-2
CSc1nnc(SCC#N)s1
 : -2.4	.
COc1ccc2c(c1)Sc1ccccc1N2CCN(C)C
 : .	1
COC(=O)c1ccccc1NC(=O)CCCC(=O)O
 : -0.6	-15
COc1ccc(C2CC(=O)N2C(C(=O)Nc2c(C)cccc2C)c2ccc3c(c2)OCO3)cc1OC (stereo not drawn)
 : .	8
CN(C)C1(CNC(=O)NC(=O)c2ccccc2)CCCCC1
 : .	10
CC(=O)Nc1cc(Cl)ccc1Cl
 : .	-11
COc1ccc(Cn2nnnc2C(c2ccccn2)N2CCc3ccccc3C2)cc1 (stereo not drawn)
 : -0.5	15
CC(=O)NC1=NN(C(C)=O)C(C)(CS(=O)(=O)c2ccc(C)cc2)S1 (stereo not drawn)
 : 2.6	1
CN1CCN(NC(=O)c2ccc(-c3ccccc3)cc2)CC1
 : 2.7	6

Given with bars between the fields: part of the list above
smiles | MgrA DNA FP | S aureus helic
Cc1ccc(Cn2c(C(=O)Nc3ccc(F)cc3C)cc3oc(C)cc32)cc1 | . | 5
Oc1ccc(/C=N/N=C/c2ccc(O)cc2)cc1 | . | -38
Cc1ccc(NCC2COc3ccccc3O2)cc1 (stereo not drawn) | -8.3 | -1

(more compounds)
Values in the order – MgrA DNA FP	S aureus helic
COC(=O)Cc1[nH]nc2c1C(c1c[nH]c3ccccc13)C(C#N)=C(N)O2 (stereo not drawn)
 : 18	4
N#Cc1ccc(OCOc2ccc(C#N)cc2)cc1
 : 0.5	.
O=C(CN1C(=O)c2ccccc2C1=O)NN1C(=O)CSC1=S
 : .	11
NS(=O)(=O)c1ccc2nc(NC(=O)c3ccc4c(c3)CCCC4)sc2c1
 : .	-3
CCN(C(=O)CC(C)(C)C)c1ccccc1
 : 1.5	-16
COC(=O)C1=C(N)CCS1
 : 2.7	.
Cc1ccc(S(=O)(=O)c2nc(NCCCN3CCCC3=O)sc2Cl)cc1
 : .	8
Cc1cccc(N2CCN(C(=O)C3=NNC(=O)CC3)CC2)c1C
 : .	-1
Cc1cc(=O)[nH]c2ccc(S(N)(=O)=O)cc12
 : .	10
O=C(Nc1ccc(F)cc1)C1CC(=O)N2CCN=C2S1 (stereo not drawn)
 : -2.6	5
COc1ccc(C2CC(c3ccc(C)cc3)=NN2C(=O)CCC(=O)O)cc1OC (stereo not drawn)
 : -0.7	.
Cn1c(C(=O)N2CCC3(CC2)OCCO3)cc2c(=O)[nH]c3ccccc3c21
 : .	-37
COc1cc(OC)cc(C(=O)NC2CCCCCCC2)c1
 : .	13
O=C(CSc1nccc(-c2cccs2)n1)c1cc2ccccc2o1
 : -0.8	.
N#Cc1c2c(c(-n3cnc4ccccc43)n3c1nc1ccccc13)CCCC2
 : .	-88
Cc1ccc(S(=O)(=O)NCc2ccc(C(=O)NCCN3CCN(c4ccccc4)CC3)cc2)cc1
 : 0.6	4
O=C(N/N=C/c1c(-c2ccccc2)nc2sccn12)c1cc(=O)[nH]c(=O)[nH]1
 : .	11
CCCc1nnc(SCC(=O)N2CCCc3ccccc32)n1CC
 : -6.5	-6
CC(C)(C)NC(=O)COc1ccc(CNc2ccc3c(c2)OCCO3)cc1
 : 0.3	3
N#Cc1ccc(C(=O)N/N=C/c2cn(CC(=O)O)c3ccccc23)c(F)c1
 : .	29
CN(C)CC(=O)c1ccc(-c2ccccc2)cc1
 : 0.3	7
Cc1n[nH]c(=O)nc1N1CCc2ccccc2C1
 : .	11
Cc1ccc(C)c2c(=O)cc[nH]c12
 : -1.7	.
COc1cc2c(cc1OC)C1c3ccccc3NC(=O)CN1CC2 (stereo not drawn)
 : -0.8	.
O=C(NCCOc1ccccc1Cc1ccccc1)c1ccc(Br)cc1
 : -7.8	14
COCCNc1c(-c2ccc(N)cc2)nc2ccc(C)cn12
 : -2.8	7
C=C1CC[C@H](O)C/C1=C/C=C1\CCC[C@]2(C)[C@@H]([C@H](C)CC[C@@H](O)C(C)(C)O)CC[C@@H]12
 : 0.5	.
Cc1cc(-n2cc(Br)c(=O)[nH]c2=O)nc(-c2ccccc2)n1
 : .	8
CC1CCCCN1S(=O)(=O)c1ccc2c(c1)oc(=O)n2CC(=O)O (stereo not drawn)
 : .	6
CCC(C)Sc1nc2c(c(=O)n1-c1ccc(Cl)cc1)SCC2 (stereo not drawn)
 : .	-18
CCCc1cc(C(=O)Nc2sc3c(c2C#N)CCCC3)no1
 : .	-6
O=c1c(S(=O)(=O)c2ccccc2)cn(Cc2ccc(F)cc2)c2ccc(F)cc12
 : 0.3	3
O=C(NCc1ccccc1)N1CCN(c2ccccc2)CC1
 : -4.0	9
O=C(O)CCNc1nc(C(F)(F)F)nc2ccccc12
 : 1.8	-18
C/C(=N\n1c(-c2ccccc2)n[nH]c1=O)c1ccccc1
 : 3.6	5
Cc1ccccc1-c1nc2cc(NCc3cccs3)ccc2o1
 : .	-26
Cc1cc(C)n2nc(-c3ccccc3)cc2n1
 : 2.1	1
CCOC(=O)c1cc(-c2ccc(OC)c(S(=O)(=O)NC)c2)on1
 : .	18
CCn1c2c(c3cc(OCc4ccccc4)ccc31)CCCC2=O
 : 2.5	.
C=CCNc1nc(C(=O)OCC(=O)c2cc(C)n(Cc3ccc4c(c3)OCO4)c2C)cs1
 : .	-4
O=C(Nc1ccc(O)cc1C(=O)O)c1ccc2c(c1)C(=O)N(CC1CCCO1)C2=O (stereo not drawn)
 : .	11
Cc1nnc2n(c1=O)N=C(c1ccccc1)CS2
 : 2.4	7
CC(C)NCC(O)COc1ccc(Br)cc1 (stereo not drawn)
 : .	19
O=C(COC(=O)c1ccncc1)Nc1ccccc1
 : .	9
C=C1SC(Nc2cccc(C(F)(F)F)c2)=NC1(C)C
 : -1.0	.
CCOC(=O)C1CCN(C/C=C/c2ccccc2)CC1
 : 2.6	11
CN(C(=O)Nc1ccccc1)n1cnc2ccsc2c1=O
 : .	22
O=c1sc2c(s1)SCSCS2
 : .	-5
CC12CCC(=O)N1C(C(=O)OCC(=O)Nc1cccc(Br)c1)CS2 (stereo not drawn)
 : .	-11
CC1CCCCN1C(=O)COc1ccc(NC(=O)c2ccco2)cc1 (stereo not drawn)
 : .	-11

A few values from the list:
CCOC(=O)C1CCN(C/C=C/c2ccccc2)CC1 in S aureus helic: 11
O=C(COC(=O)c1ccncc1)Nc1ccccc1 in S aureus helic: 9
C=C1SC(Nc2cccc(C(F)(F)F)c2)=NC1(C)C in MgrA DNA FP: -1.0
CC1CCCCN1C(=O)COc1ccc(NC(=O)c2ccco2)cc1 (stereo not drawn) in S aureus helic: -11
CN(C(=O)Nc1ccccc1)n1cnc2ccsc2c1=O in S aureus helic: 22
O=C(Nc1ccc(O)cc1C(=O)O)c1ccc2c(c1)C(=O)N(CC1CCCO1)C2=O (stereo not drawn) in S aureus helic: 11
Cc1nnc2n(c1=O)N=C(c1ccccc1)CS2 in MgrA DNA FP: 2.4

Carrying on:
Values in the order – MgrA DNA FP	S aureus helic
COc1ccccc1N1CCN(C(=O)c2ccc(N)cc2)CC1
 : -1.3	.
Cn1nc(C(=O)NCCNc2ncc(C(F)(F)F)cc2Cl)c2ccccc2c1=O
 : .	3
O=C1Cc2cc(S(=O)(=O)N3CCCC3c3ccc4c(c3)OCCO4)ccc2N1 (stereo not drawn)
 : .	-11
CCOC(=O)C1CCN(C(c2cc3ccc(OC)cc3n3nnnc23)c2nnnn2C2CCCC2)CC1 (stereo not drawn)
 : 2.9	-2
CN(C)C(=O)NC1c2ccccc2-c2ccccc21
 : -0.9	2
O=c1[nH]c2ccccc2c(O)c1Br
 : .	-4
O=C1NC(c2cc(Br)cs2)Nc2ccccc21 (stereo not drawn)
 : -3.0	.
COC(=O)c1scc(C)c1NC(=O)CC1NCCNC1=O (stereo not drawn)
 : .	-14
O=C1NC2(CCCC2)C(=O)N1CCC(=O)N(CC1CCCO1)c1nc2ccccc2s1 (stereo not drawn)
 : .	3
CC(=O)N1c2ccccc2C(C)CC12CCCCC2 (stereo not drawn)
 : 2.5	-2

A second format for part of the listing above:
| SMILES | MgrA DNA FP | S aureus helic |
| --- | --- | --- |
| COc1ccccc1N1CCN(C(=O)c2ccc(N)cc2)CC1 | -1.3 | . |
| COC(=O)c1scc(C)c1NC(=O)CC1NCCNC1=O (stereo not drawn) | . | -14 |

New compounds follow.
Values in the order – MgrA DNA FP	S aureus helic
Cc1nc2sc3c(NCc4ccccc4)ncnc3c2c2c1COC(C)(C)C2
 : .	9
Cc1cc(=O)c2n(Cc3ccccc3Cl)nc[n+]2[nH]1
 : 2.6	0
O=C1N(Cc2ccccc2)c2ccccc2C1(O)c1nnc(-c2ccccc2)o1 (stereo not drawn)
 : .	-5
COc1ccc(S(=O)(=O)N2Cc3ccccc3CC2C(=O)N2CCCCCC2)cc1OC (stereo not drawn)
 : .	-5
CN(C)S(=O)(=O)c1cccc(COC(=O)c2ccc3c(c2)OCO3)c1
 : .	12
NC(=O)C1CN(C(=O)CSc2nnc(-c3cccnc3)n2-c2ccccc2)c2ccccc2O1 (stereo not drawn)
 : .	7
COc1ccc(NC(=O)Cn2cnc3ccccc3c2=O)cc1
 : 2.5	5
COc1ccccc1Cn1cccc1C1=NC(C(C)C)CO1 (stereo not drawn)
 : .	17
N#Cc1cccc(CS(=O)(=O)c2cccs2)c1
 : -1.9	.
O=C(CCN1CCN(C2c3ccccc3-c3ccccc32)CC1)Nc1cccc(C(F)(F)F)c1
 : -6.1	10
COc1cccc(OCC(O)CNC(C)c2ccccc2)c1 (stereo not drawn)
 : .	-13
CCC(=O)Nc1cccc(NC(=O)CSc2nnnn2C(C)C)c1
 : 16	4
CC(C)c1ccccc1C=NCC(=O)O
 : 1.1	3
O=C(Cc1ccc(-c2ccccc2)cc1)NCc1ccco1
 : .	0
C/C(=C\C(=O)NC1CC(C)(C)NC(C)(C)C1)NC1CC(C)(C)NC(C)(C)C1
 : 0.9	6
CC1(CCC(=O)O)NNC(=S)NN1
 : 9.4	4
COc1ccccc1OCCn1c(=O)c2cc3c(=O)n(CCOc4ccccc4OC)c(=O)c3cc2c1=O
 : .	5
CC1CCCCN1CCNS(=O)(=O)c1ccc2c(c1)n(C)c(=O)c(=O)n2C (stereo not drawn)
 : .	-19
CCOC(=O)Cc1csc(NC(=O)COCC(=O)O)n1
 : -2.1	.
Cc1[nH]c(C)c(S(=O)(=O)NC2CCCc3ccccc32)c1C(=O)N1CCCC1 (stereo not drawn)
 : .	4
O=C(O)CC1SC(=O)N(c2ccccc2)C1=O (stereo not drawn)
 : -6.6	0
CN(C)C(=O)COC(=O)c1ccccc1Sc1ccccc1C#N
 : .	7
O=C(c1cccs1)N1CCC(Cc2ccccc2)CC1
 : -1.8	7
O=C(C(Cc1ccccc1)n1cccc1)N(CCc1ccccc1)Cc1ccccc1 (stereo not drawn)
 : 0.5	16
NC(=S)CN1C(=O)c2ccccc2S1(=O)=O
 : .	5
C=CCn1c(N)cc(=O)nc1SC(C)C(=O)Nc1cccc(Cl)c1 (stereo not drawn)
 : 3.1	7
CCN(CC)S(=O)(=O)c1ccc(N/N=C/C=C2/N(C)c3ccccc3C2(C)C)nc1
 : .	-7
N#Cc1ccc(COC(=O)c2ccc3noc(-c4ccccc4)c3c2)cc1
 : .	-9
CCCSc1ccc2nc(NC(=O)OC)[nH]c2c1
 : -0.1&6.5&0.9	.
O=C(O)C1CCC1C(=O)N1CCN(c2nc3ccc(Cl)cc3s2)CC1 (stereo not drawn)
 : -2.8	.
CC(C)c1ccc(-c2nnc(N)s2)cc1
 : .	-6
CCC(=O)Oc1oc(-c2ccccc2)nc1C=Nc1ccccc1C
 : .	-2
CCN(Cc1nc2cc(OC)c(OC)cc2c(=O)[nH]1)C(=O)CC1CC2CCC1C2 (stereo not drawn)
 : .	-3
COc1ccc(-c2nnn(CC(=O)N(CC(=O)NCc3ccccc3)c3ccc4c(c3)OCCO4)n2)cc1OC
 : -1.0	5
C1=C[C@H]2c3ccccc3N[C@@H](c3cccc(OC4CSC4)c3)[C@H]2C1
 : 2.1	10
CN(C)C(=O)Nc1cccc(Cl)c1Cl
 : -1.5	.
CC1=C(C(=O)OC2CCCC2C)C(c2cc3c(cc2Br)OCO3)NC(=O)N1 (stereo not drawn)
 : 2.0	.
O=C(c1ccno1)N1CCN(Cc2ccccc2)CC1
 : .	-5
O=C(OCc1cc(=O)oc2cc(O)ccc12)c1cnccn1
 : .	6
CCOc1cc2[nH]c(=O)n(CCCCC(=O)N3CCN(Cc4ccccc4)CC3)c(=O)c2cc1OCC
 : .	6
CCOC(=O)C1=CN(c2ccc(OCC)cc2)C=C(C(=O)OCC)C1c1cccc(OC)c1
 : 4.9	13
Cc1c(S(=O)(=O)c2ccc(Cl)cc2)csc1S(=O)(=O)N/N=C/c1c(Cl)cccc1Cl
 : -0.6	.
O=C(NCC1CCCCC1)c1n[nH]c(=O)c2ccccc12
 : .	-24
CCC(=O)c1ccc(OCC(=O)NCCOc2ccccc2)cc1
 : .	-17
O=C(NCCCc1nc2ccccc2[nH]1)c1ccccc1
 : .	12
COc1ccccc1NCC(=O)NN=C1CCN(Cc2ccccc2)CC1
 : .	-5

The list is partial. The share of hits here may be higher or lower than overall.
